High-throughput results deposited in PubChem by National Center for Advancing Translational Sciences (NCATS).
CtBP-E1A blk: blocks the CtBP interaction with E1A | AlphaScreen GST-E1A/His-CtBP binding, 1536-well; hits give low values; control for the full effect not named in the record | activity change, % (concentration not given with the values) | 340,000 compounds, 0.49% hits | AID 651724; in the data active means activity change below about -65%; inconclusive means about -30% to -65%; inactive means above about -30%; also: % is scaled to controls: 0 for no effect and ±100 for the full control effect
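Protein mix (5X: 125 nM each GST-E1A, His-CtBP) was incubated with pinned compound 2 h at 37 deg C in dark, in 50 mM Tris pH 8.0 buffer with 300 mM NaCl. Glutathione donor and nickel acceptor beads followed; AlphaScreen signal read after 1 h.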
TRPML1 ag: activates the human TRPML1 channel. Q9GZU1. TRPML1-expressing cells, Ca2+ dye fluorescence, FDSS; host cell line not named in the record; reference of the full effect not given here. activation, % (concentration not given with the values). 410,000 compounds, 0.12% hits; in the data active = activation above about 50%; inconclusive = about 30% to 50%; inactive = below about 30%; also: 0% is about no effect; the text of the record puts the active cut at 80%
Target sequence (Q9GZU1 whole entry, looked up): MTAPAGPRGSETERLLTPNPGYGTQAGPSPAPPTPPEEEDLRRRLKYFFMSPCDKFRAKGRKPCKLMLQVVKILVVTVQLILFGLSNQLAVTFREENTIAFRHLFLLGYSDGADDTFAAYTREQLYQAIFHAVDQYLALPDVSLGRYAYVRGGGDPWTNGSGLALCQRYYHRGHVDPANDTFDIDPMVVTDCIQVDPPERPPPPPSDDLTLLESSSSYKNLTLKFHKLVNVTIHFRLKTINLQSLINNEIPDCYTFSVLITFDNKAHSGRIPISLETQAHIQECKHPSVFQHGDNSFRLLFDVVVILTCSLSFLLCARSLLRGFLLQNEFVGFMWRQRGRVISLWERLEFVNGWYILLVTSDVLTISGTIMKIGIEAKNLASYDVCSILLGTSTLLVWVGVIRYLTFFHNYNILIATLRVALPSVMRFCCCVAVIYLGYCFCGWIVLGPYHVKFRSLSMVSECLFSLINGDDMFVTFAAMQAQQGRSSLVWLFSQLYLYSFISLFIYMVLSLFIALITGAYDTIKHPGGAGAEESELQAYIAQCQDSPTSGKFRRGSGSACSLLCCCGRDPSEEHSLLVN
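Kinetic FDSS Ca2+ read in Tet-induced TRPML1-DL cells (ABD Ca8 dye plus quencher, 45-90 min RT loading): baseline, then compound, then 110 s agonist window; EC80 agonist 54-4 at 4uM final added afterwards for a 110 s antagonist window.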
TRPML1 inh: blocks the human TRPML1 channel; Q9GZU1; TRPML1-inducible cells, Ca2+ dye fluorescence, FDSS; hits give low values; inhibition of EC80 agonist-evoked calcium signal; activity change, negative = inhibition, % (no concentration beside the values); 390,000 compounds, 0.02% hits; AID 624415; in the data active means activity change below about -50%; inconclusive means about -30% to -50%; inactive means above about -30%;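 also: stimulus is agonist 54-4 at its EC80 concentration; % is scaled to controls: 0 for no effect and ±100 for the full control effect; compound concentration not given in the record; the text of the record puts the active cut at -80%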
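Calcium fluorescence in TRPML1-DL cells induced overnight with Tet: a 110 s read after compound pin addition, then a 110 s antagonist read after challenge with 54-4 at 4 uM final (EC80).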
D2 agonist: agonists of human D2 dopamine receptor (beta-arrestin) | P14416 | DiscoveRx PathHunter D2 beta-arrestin, luminescence, 90 min; 100% = 57 uM dopamine signal | activation, % (concentration not given with the values) | 360,000 compounds, 0.084% hits | AID 624465; in the data active = activation above about 40%; inconclusive = about 15% to 40%; inactive = below about 15%; also: the text of the record calls up to 30% inactive
Target sequence (P14416 whole entry, looked up): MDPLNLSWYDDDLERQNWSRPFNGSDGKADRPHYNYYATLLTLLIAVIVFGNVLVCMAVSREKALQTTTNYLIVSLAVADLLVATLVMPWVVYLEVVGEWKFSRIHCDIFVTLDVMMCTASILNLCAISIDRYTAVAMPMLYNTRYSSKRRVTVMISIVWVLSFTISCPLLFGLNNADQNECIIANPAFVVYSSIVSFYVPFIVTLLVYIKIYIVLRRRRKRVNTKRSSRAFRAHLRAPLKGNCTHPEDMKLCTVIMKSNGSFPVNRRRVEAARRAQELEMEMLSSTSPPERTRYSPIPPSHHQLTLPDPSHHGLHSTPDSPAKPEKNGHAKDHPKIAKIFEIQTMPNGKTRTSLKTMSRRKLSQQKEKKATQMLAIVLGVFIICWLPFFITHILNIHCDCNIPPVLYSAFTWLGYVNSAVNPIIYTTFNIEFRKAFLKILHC
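DiscoveRx PathHunter D2 beta-arrestin cells (2,100/well) attached overnight, then compound-stimulated 90 min at 37 C in HBSS/10 mM HEPES/0.1% Tween-20 buffer; beta-galactosidase complementation read by luminescence after 1 h at ambient temperature. Dopamine 57 uM final (EC100) as control.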
Six1-Eya2 blk: Six1/Eya2 interaction inhibition; AlphaScreen GST-Six1/His-Eya2 binding, biochemical; hits give low values; control for the full effect not named in the record; activity change, % (no concentration beside the values); 360,000 compounds, 0.56% hits; Q15475+O00167; in the data active = activity change below about -65%; inconclusive = about -30% to -65%; inactive = above about -30%; also: % is scaled to controls: 0 for no effect and ±100 for the full control effect
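Compounds are tested against tagged Six1 and Eya2 proteins bridged by glutathione donor and nickel acceptor beads; after a one-hour incubation at 37 °C without light, AlphaScreen emission is recorded.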
PINK1 modulator: PINK1 expression modulation; PINK1 immunofluorescence, high-content cytometry, 24 h; Potency, µM (series often up to 76.6 µM), without a hit: at the top dose activation (PINK1 increase), most hits filed as activators; 410,000 compounds, 0.2% hits; AID 624263; active = well fitted activation curve with a large enough effect; inconclusive = small, poorly fitted or top-dose-only effect; inactive = flat fitted curve, though single readings scatter; cell line not stated here;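 also: potency is read from the fitted curve at half-maximal effect; % of control where 0% means no effect; nearly all actives have a fitted effect of over 65% in size; a mitochondrial uncoupler was the plate control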
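Fluorescence from anti-PINK1 antibody, together with nuclear and cell stains, was scanned on a laser-scanning cytometer. Before staining, stable-line cells were incubated 24 hours with compounds at 5 concentrations; primary antibody 12 h at 10 degrees C.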
An asterisk follows results filed as active; ? = inconclusive; . = not tested or not shown; [ ] = remark or other dose. Compounds as they come (roughly 1% active in at least one column).

SMILES | CtBP-E1A blk | TRPML1 ag | TRPML1 inh | D2 agonist | Six1-Eya2 blk | PINK1 modulator
Cc1ccc2c(c1)C1CN(C)CCC1N2C(=O)c1ccccc1NS(=O)(=O)c1ccc(F)cc1 (stereo unspecified) | -8 | 0.1 | 0 | -1.4 | -5 | -0.9%
Cc1ccc(C(=O)N/N=C/c2ccc([N+](=O)[O-])s2)cc1 | -5 | 9.3 | -1 | 5.1 | -5 | 1.5%
COc1ccc(NS(=O)(=O)c2cccc(C(=O)N/N=C(\C)c3cccnc3)c2)cc1 | 0 | -0.7 | 3 | -4.6 | -8 | 0.5%
COCCCNC(=O)c1cnc2sc(N3CCCCCC3)nn2c1=O | . | -0.8 | 6 | . | . | -0.1%
CCOC(=O)c1cc(-c2ccccc2)n(CC(=O)Nc2ccc(CC)cc2)c1C | . | 1.8 | 2 | . | . | 3.3%
Cc1cccc(NC(=O)c2nc(S(=O)(=O)Cc3ccccc3)ncc2Cl)c1 | 2 | 0.8 | 8 | -7.4 | 3 | -2.0%
CC1=C(C(=O)Nc2ccc(Cl)cc2)C(c2ccco2)NC(=O)N1 (stereo unspecified) | 6 | -0.8 | 16 | -1.0 | -1 | 0.8%
Cc1ccc(SCC(=O)NCc2ccc(F)cc2)cc1 | 11 | 1.5 | 4 | -2.0 | -8 | 0.6%
C=CCn1cccc(C(=O)Nc2cc(OC)cc(OC)c2)c1=O | 5 | -0.5 | 3 | -2.9 | -1 | -0.1%
CCOCCCNC(=O)C1CCN(S(=O)(=O)CC)CC1 | 3 | 0.9 | -1 | -3.5 | 7 | .

Six of these compounds in another layout.
SMILES,CtBP-E1A blk,TRPML1 ag,TRPML1 inh,D2 agonist,Six1-Eya2 blk,PINK1 modulator
COc1ccc(NS(=O)(=O)c2cccc(C(=O)N/N=C(\C)c3cccnc3)c2)cc1,0,-0.7,3,-4.6,-8,0.5%
COCCCNC(=O)c1cnc2sc(N3CCCCCC3)nn2c1=O,.,-0.8,6,.,.,-0.1%
CCOC(=O)c1cc(-c2ccccc2)n(CC(=O)Nc2ccc(CC)cc2)c1C,.,1.8,2,.,.,3.3%
Cc1cccc(NC(=O)c2nc(S(=O)(=O)Cc3ccccc3)ncc2Cl)c1,2,0.8,8,-7.4,3,-2.0%
CC1=C(C(=O)Nc2ccc(Cl)cc2)C(c2ccco2)NC(=O)N1 (stereo unspecified),6,-0.8,16,-1.0,-1,0.8%
Cc1ccc(SCC(=O)NCc2ccc(F)cc2)cc1,11,1.5,4,-2.0,-8,0.6%

Remaining list, next part
SMILES | CtBP-E1A blk | TRPML1 ag | TRPML1 inh | D2 agonist | Six1-Eya2 blk | PINK1 modulator
O=C(c1ccco1)N1CCN(CC(O)COc2ccc3oc4ccccc4c3c2)CC1 (stereo unspecified) | 15 | 0.6 | 28 | ? | -10 | -2.2%[38.3 µM]
O=c1cccc(-c2ccc(Br)cc2)o1 | 5 | -0.8 | -8 | -1.2 | -3 | -1.1%
Cc1ccc(OCCN2CCN(c3nc(NCc4ccco4)c4ccccc4n3)CC2)cc1 | -2 | -0.8 | -6 | 1.9 | -12 | -2.2%
CCOc1ccc(NC(=O)C2(c3ccc(OC)c(OC)c3)CCCC2)cc1 | -3 | 0.3 | 5 | 0.1 | 0 | 2.0%
CC(=O)Nc1ccc(-c2ccnc(-c3ccc(NC(C)=O)cc3)n2)cc1 | 4 | -1.0 | 30 | -1.0 | 1 | -1.0%
CCCOc1ccc(C(F)(F)F)cc1NC(=O)CCc1c(C)noc1C | -9 | 4.6 | 52 | 0.0 | 10 | 0.6%
COc1ccc(-c2cc(C(=O)OCc3ccccn3)c3ccccc3n2)cc1 | -13 | -0.4 | -4 | -2.3 | 43 | -1.4%
O=C(NCCO)/C(=C/c1ccc(Br)cc1)NC(=O)c1cccs1 | -1 | 1.0 | -11 | -0.8 | 3 | -7.3%[38.3 µM]
COCc1cc(=O)[nH]c(Nc2nc3ccccc3o2)n1 | -85* | -0.7 | 7 | -1.2 | -74* | -1.8%
COc1ccc(Br)cc1/C=N/Nc1ccc(S(=O)(=O)Nc2ccccc2C(=O)O)cc1[N+](=O)[O-] | 7 | 0.4 | 4 | -1.7 | -28 | 3.1%
COc1cc(C2C(C(=O)c3ccc(C)o3)=C(O)C(=O)N2c2cc(C)on2)cc(OC)c1OC (stereo unspecified) | . | -0.4 | 2 | -4.5 | 6 | 2.3%
Cc1ccc(CNC(=O)C(C)OC(=O)c2ccco2)cc1 (stereo unspecified) | -1 | 0.0 | -5 | -2.5 | -2 | -3.4%[38.3 µM]
CC(C)C1N=C2c3ccccc3N=C(SCC(=O)NCCc3ccc(S(N)(=O)=O)cc3)N2C1=O (stereo unspecified) | 3 | 0.1 | -10 | -3.6 | 4 | 3.1%
CCCCCn1c(CN2CCN(C(=O)c3ccco3)CC2)nc2c1c(=O)n(C)c(=O)n2C | -14 | -0.3 | 7 | -3.7 | -16 | 1.0%
COc1ccc(/C=N/NC(=O)c2ccc(NC(=O)c3ccccc3Br)cc2)cc1 | 2 | 1.8 | 6 | 1.7 | -3 | -0.2%
CCOC(=O)C1=C(NC(=S)NC(=O)c2ccccc2)c2ccccc2CC1C(C)C (stereo unspecified) | -10 | -0.7 | 12 | -8.7 | -18 | -1.9%
C=CCNC(=O)NC(=O)Cn1c(=O)c2c(ncn2CC)n(Cc2ccccc2)c1=O | -8 | 2.0 | 0 | 6.9 | -1 | 2.3%
C#CCNC(=O)C1=C[C@H](c2coc3ccccc3c2=O)[C@@H](CCCO)[C@H](OCC)O1 | -12 | -0.5 | 18 | -1.5 | 7 | 0.1%
CC(C)(O)CN(C(=O)c1ccc([N+](=O)[O-])cc1)C1CCCC1 | 3 | 0.3 | -6 | 3.4 | 2 | 1.4%
Cc1nc2ccccc2c(=O)n1CCCN1CCOCC1 | 8 | 0.8 | -14 | -2.1 | 0 | 2.9%
CC(=O)NC1C(Oc2ccc(C)cc2)OC2COC(c3ccco3)OC2C1O (stereo unspecified) | 6 | 0.4 | -9 | -1.1 | 0 | 0.0%
COc1ccccc1OCCOc1ccc(/C=C2\C(=N)N3N=C(S(C)(=O)=O)SC3=NC2=O)cc1 | . | 1.6 | -3 | -0.1 | -24 | 1.0%
CCCCn1c(N)c(N(CC(C)C)C(=O)c2cc(C)nc3ccccc23)c(=O)[nH]c1=O | -2 | 0.4 | -6 | 3.5 | 7 | -7.2%
S=c1[nH]nc(Cc2c[nH]c3ccccc23)o1 | 2 | 0.4 | -4 | 0.8 | 1 | .
CC1(Oc2cccc(F)c2)CCN(Cc2ccc(-c3ccccn3)cc2)C1 (stereo unspecified) | -4 | -0.4 | 39 | 5.6 | -9 | 2.3%
CC1(C)CC(=O)C(C=Nc2ccc3[nH]ncc3c2)=C(O)C1 | -11 | 0.6 | 17 | 1.9 | -7 | .
CC1CCN(C(=O)C2CCN(S(=O)(=O)c3ccc(-n4cnnn4)cc3)CC2)CC1 | 2 | 0.4 | 6 | -3.1 | 6 | 0.0%
Cc1cccc(N(C(=O)c2snc(C(N)=O)c2N)C(C(=O)NCC2CCCO2)c2ccc3ncccc3c2)c1 (stereo unspecified) | -4 | 0.2 | 11 | 3.4 | 1 | 0.3%
COC1(c2cc(-c3ccccc3)nc(N)n2)CCCCC1 | 13 | 5.2 | -11 | -2.2 | 24 | ?
Cc1cc(C)c(S(=O)(=O)NCc2csc(-c3ccccc3)n2)c(C)c1 | . | 1.8 | 0 | . | . | -0.8%
CCOc1ccccc1C1CC(c2cccs2)=NN1S(C)(=O)=O (stereo unspecified) | 8 | 0.0 | 0 | -1.1 | 0 | 9.7%
O=c1ccc(NS(=O)(=O)c2ccccc2)cn1Cc1ccc(Cl)c(Cl)c1 | -2 | -0.4 | 37 | -3.2 | -1 | 0.2%
Cc1cccc(N2CCN(C(=O)Cn3cnc4sc(C)c(S(=O)(=O)N5CCN(c6ncccn6)CC5)c4c3=O)CC2C)c1 (stereo unspecified) | . | -0.2 | 12 | . | . | 2.0%
O=C1NC(=O)N(c2ccc(Cl)cc2)C(=O)/C1=C/c1ccc2c(c1)CCN2Cc1ccccc1Cl | -1 | -0.4 | 9 | -3.0 | 2 | -1.2%
N/C(Cc1nc(-c2ccc(Br)cc2)cs1)=N\O | -8 | -0.6 | 5 | 1.0 | -1 | 4.3%
Cc1ccc(CNC(=O)CC(C)CC2=NS(=O)(=O)c3ccccc3N2)cc1 (stereo unspecified) | . | -0.2 | 2 | . | . | 1.6%
O=C(CNC(=O)C1CCCCC1)OCc1cc(=O)oc2ccc3ccccc3c12 | -5 | 1.4 | -8 | 0.2 | -2 | -0.7%
CC1(C)CC2CC(C)(CN2CC(=O)C(C#N)c2ccccc2)C1 (stereo unspecified) | 13 | -0.5 | 3 | 1.2 | 2 | -3.9%[38.3 µM]
O=C(COC(=O)c1ccc2c(c1)S(=O)(=O)c1ccccc1C2=O)NC1CC1 | 3 | -0.3 | 2 | 14 | -6 | -1.1%
CC1C(=O)N2CCCc3cc(S(=O)(=O)Nc4ccccc4C(N)=O)cc1c32 (stereo unspecified) | 0 | 0.6 | -20 | 0.2 | 7 | 1.5%
Cc1ccc(C2=NOC(=O)/C2=C\c2ccccc2)cc1 | . | 2.4 | 39 | 2.6 | -4 | 5.0%
Cc1ccc(S(=O)(=O)N(CC(=O)Nc2ccccc2C(=O)O)c2ccccc2)cc1 | -8 | 0.0 | -7 | -1.0 | -3 | -1.7%
O=C(CCCn1cnc([N+](=O)[O-])n1)Nc1ccc(Cl)cc1Cl | -3 | 0.1 | -8 | 2.0 | 13 | 0.3%
CCOC(=O)c1[nH]c(C)c(CCC(=O)NCc2cccc(C)c2)c1C | . | -0.5 | 8 | . | . | 1.0%
Cn1cccc1C1(C(F)(F)F)NCCNC1=O (stereo unspecified) | 7 | 0.0 | -14 | -2.6 | 0 | -1.5%
Cc1c(Cc2ccccc2)c(NCCCO)n2c(nc3ccccc32)c1C#N | 14 | 4.6 | -12 | 6.9 | 20 | 4.6%
Cc1cc(=O)oc(C)c1C(=O)Nc1ccccc1F | 4 | 0.4 | -15 | 2.8 | 6 | 1.3%
O=[N+]([O-])c1ccc(N2CCCCC2)s1 | -2 | -0.4 | -8 | -2.1 | 0 | -1.2%
Cc1ccc(C)c(CSc2nnc(-c3cccnc3)o2)c1 | 0 | 0.8 | 19 | -3.5 | 3 | -3.5%[38.3 µM]
CC(C)Cc1cc(C(=O)N(C)C2CCCN(Cc3ccccc3F)C2)n(C)n1 (stereo unspecified) | -17 | 1.1 | -11 | 6.3 | 2 | 0.4%
CC(O)(c1ccc(F)c(F)c1)c1nc(-c2cccc(C#N)c2)cs1 (stereo unspecified) | 12 | 0.0 | . | 0.8 | -5 | 5.8%
COc1ccc(CCN2C(=O)CN(Cc3ccccc3)CC2=O)cc1OC | 2 | 1.0 | -8 | 0.9 | 5 | -2.3%
